Screens deposited in PubChem BioAssay by National Center for Advancing Translational Sciences (NCATS).
ClpP mod – qHTS Assay for Activators of ClpP. ATP-dependent Clp protease proteolytic subunit (Bacillus subtilis (strain 168)), P80244. purified B. subtilis ClpP, FRET peptide cleavage, 20 min. Potency, µM (top dose mostly 57.5 µM), inactives show at the highest dose activity change, negative = active. 340,000 tested, 1.9% active. AID 651965, 2013; active = well fitted falling curve with a large enough effect; inconclusive = small, poorly fitted or top-dose-only effect; inactive = no such curve, though single readings can be large or run the other way; note: potency is the fitted concentration of half-maximal effect; the source files actives as falling curves though it sought activators and does not explain the sign; nearly all actives have a fitted effect of over 65% in size; many hits overshoot -100%
Target sequence (P80244 whole entry, looked up): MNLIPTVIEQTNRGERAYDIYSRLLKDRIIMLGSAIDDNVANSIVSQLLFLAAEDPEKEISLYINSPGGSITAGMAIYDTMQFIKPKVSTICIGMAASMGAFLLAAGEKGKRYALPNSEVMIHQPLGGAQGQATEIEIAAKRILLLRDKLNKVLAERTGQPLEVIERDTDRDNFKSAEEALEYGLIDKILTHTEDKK
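ClpP 10 microg/mL final, pH 8 Tris/KCl buffer with BSA, glycerol, Tween-20; compound pinned in; FRET-FV substrate; RT 20 min; Ex320/Em430; ΔFRET vs ADEP 5.8 microM, DMSO, no enzyme.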
gsp ag – agonists of gsp mutant (McCune-Albright syndrome); gsp mutant cells, cAMP HTRF, 30 min; control for the full effect not named in the record; Potency, µM (titrated, usually from 76.9 µM), inactives show at the highest dose activation (cAMP increase), most hits filed as activators; 340,000 tested, 0.13% active; AID 624287; active = well fitted activation curve with a large enough effect; inconclusive = small, poorly fitted or top-dose-only effect, or another doubt; inactive = no such curve, though single readings can be large or run the other way; cell line not stated here;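 note: phosphodiesterase inhibitor Ro 20-1724 added with compounds to block cAMP breakdown; potency is the fitted concentration of half-maximal effect; nearly all actives have a fitted effect of over 60% in size; about a fifth of the inactives were tested at one dose only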
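Cells in DMEM/10% FBS with G418 were pretreated with compounds in DMSO plus […] (300 uM stock) for 30 min at 37C. cAMP was measured by HTRF (cAMP-d2 plus anti-cAMP antibody-K) after 30 min at room temperature.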
gsp antagonist – antagonists of gsp mutant (McCune-Albright syndrome) | 340,000 tested, 0.4% active | gsp-mutant cells, cAMP HTRF, 30 min; control for the full effect not named in the record | Potency, µM (doses to about 76.9 µM), without a hit: at the highest dose activity change, negative = inhibition, hits mostly inhibitors; active = falling curve of any shape with a large fitted effect; inconclusive = falling curve, mostly with a smaller effect; inactive = flat or rising curve; cell line not stated here;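 note: intracellular cAMP measured with PDE inhibitor Ro 20-1724 present during compound exposure; potency is the fitted concentration of half-maximal effect; % is set by controls: 0 for no effect and ±100 for the full control effect; nearly all actives have a fitted effect of over 65% in size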
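HTRF cAMP measurement after 30 min RT detection following 30 min, 37C compound treatment alongside […] (added as 300 uM solution) in G418-selected cells seeded at 2000/well and grown 16–24 h.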
TRPV1 PAM – potentiators of human vanilloid receptor 1 (TRPV1). AID 540277. TRPV1-expressing cells, Fluo-8 calcium influx, capsaicin EC20 potentiation; host cell line not named in the record; control for the full effect not named in the record. potentiation, % at 8.33 µM. Q8NER1. 320,000 tested, 0.02% active; active means potentiation above 80%; inconclusive means 30% to 80%; inactive means below 30%; note: 0% is about no effect
Target sequence (Q8NER1 whole entry, looked up): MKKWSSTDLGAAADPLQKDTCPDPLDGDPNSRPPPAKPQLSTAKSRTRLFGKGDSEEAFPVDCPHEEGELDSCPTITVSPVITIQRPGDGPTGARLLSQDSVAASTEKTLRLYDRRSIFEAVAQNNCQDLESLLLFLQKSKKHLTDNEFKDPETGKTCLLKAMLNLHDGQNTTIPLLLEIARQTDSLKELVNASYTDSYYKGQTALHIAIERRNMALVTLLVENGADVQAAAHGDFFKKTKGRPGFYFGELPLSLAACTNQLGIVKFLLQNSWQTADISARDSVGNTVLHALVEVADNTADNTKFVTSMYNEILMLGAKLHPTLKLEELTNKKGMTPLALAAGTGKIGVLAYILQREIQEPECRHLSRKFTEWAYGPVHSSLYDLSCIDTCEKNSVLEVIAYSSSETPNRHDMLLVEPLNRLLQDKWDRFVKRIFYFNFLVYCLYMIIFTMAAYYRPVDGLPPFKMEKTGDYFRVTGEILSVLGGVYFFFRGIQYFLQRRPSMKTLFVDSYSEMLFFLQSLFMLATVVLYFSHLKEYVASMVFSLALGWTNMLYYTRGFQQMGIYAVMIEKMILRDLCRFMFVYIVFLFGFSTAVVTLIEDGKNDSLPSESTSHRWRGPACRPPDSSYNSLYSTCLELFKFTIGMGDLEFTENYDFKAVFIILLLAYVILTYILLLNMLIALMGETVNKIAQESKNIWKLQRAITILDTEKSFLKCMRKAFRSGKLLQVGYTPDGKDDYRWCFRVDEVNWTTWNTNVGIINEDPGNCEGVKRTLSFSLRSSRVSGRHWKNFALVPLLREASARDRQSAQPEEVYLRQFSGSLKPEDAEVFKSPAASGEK
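Fluo-8 calcium influx in TRPV1-expressing cells, kinetic read (ex 480/em 520 nm). Compound added and read 3 min for agonist activity, followed by capsaicin at EC20 final and 2 min further read for enhancement.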
CtBP-E1A blk – blocks the CtBP interaction with E1A; AlphaScreen GST-E1A/His-CtBP binding, 1536-well; hits give low values; control for the full effect not named in the record; activity change, % (concentration not given with the values); 340,000 tested, 0.49% active; in the data active means activity change below about -65%; inconclusive means about -30% to -65%; inactive means above about -30%; note: % is set by controls: 0 for no effect and ±100 for the full control effect
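In 5 uL wells, 23 nL compound meets equimolar GST-E1A and His-CtBP (5X stock 125 nM each) for 2 h, 37 °C. Beads (5X, 50 ug/mL) then 1 h, 37 °C, dark.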
Menin-MLL FL inh – inhibitors of human menin-MLL interaction, wild-type MLL peptide; Fluorescence polarization, fluorescein-MLL peptide displacement from menin; FP activity change, % at 61.4 µM; 290,000 tested, under 10 active; inconclusive = falling polarisation curve, or a change in total fluorescence; inactive = total fluorescence flat and polarisation flat or rising; no compound was filed as active; the % refers to the polarisation; negative = inhibition;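 note: % of control where 0% means no effect; inhibitors lower the polarisation; unlabelled MLL peptide was the positive control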
Sfp inh – Sfp phosphopantetheinyl transferase inhibition; Q9F4F7; Biochemical Sfp PPTase activity, qHTS; Potency, µM, for inactives: max response, negative = inhibition, hits mostly inhibitors; 310,000 tested, 3.5% active; active = well fitted inhibition curve with a large enough effect; inconclusive = small, poorly fitted or top-dose-only effect, or another doubt; inactive = no such curve, though single readings can be large or run the other way;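 note: the enzyme is Sfp with the accession as filed and its product quenches rhodamine fluorescence; potency is the fitted concentration of half-maximal effect; 0% = enzyme reaction without inhibitor and -100% = no enzyme wells; top concentration of the series not given in the record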
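Step 1, compound plus 15 nM Sfp-PPTase, 15 min, room temperature. Step 2, add rhodamine-CoA (5 uM) and BHQ-2-YbbR (12.5 uM). Step 3, read 525/598 nm fluorescence at 0 and 30 min.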
* = called active by the depositor; ? = inconclusive; · = no result given; & = joins results of further samples; [ ] = remark or other dose. Hits appear at their usual frequency (roughly 5.3% active in at least one column).

| SMILES | Menin-MLL FL inh | ClpP mod | gsp antagonist | gsp ag | CtBP-E1A blk | TRPV1 PAM | Sfp inh |
| --- | --- | --- | --- | --- | --- | --- | --- |
| O=S(=O)(NC1CCCCCC1)c1cccc2cccnc12 | 1.8 | -0.4% | ? | 3.0% | -5.9 | -10.7 | 6.2% |
| CNC(=O)N(O)C1N(/N=C/c2cccnc2)C(=S)SC1(C)C (stereo not given) | 5.5 | · | -3.6% | -53.1%[inhibitor][15.4 µM] | 4.3 | -0.6 | -20.6% |
| Cc1cc(-c2ccc(C(C)C)c(S(=O)(=O)N3CCN(c4ccccc4)CC3)c2)on1 | -1.1 | · | 5.3% | 22.4%[15.4 µM] | -26.1 | -17.4 | 6.4% |
| CC(=O)c1cc2cc(O)ccc2o1 | -1.8 | -4.7% | 4.9% | 5.3% | 2.3 | 7.2 | 4.4% |
| O=C(CNC(=O)c1ccc(OC(F)F)cc1)NCC1(N2CCOCC2)CCCCC1 | · | 0.4% | 6.4% | -65.8%[inhibitor] | -0.1 | 6.6 | · |
| Nc1nc(-c2ccccc2)nn1C(=O)Cc1ccccc1 | 1.2 | 5.0% | 12.7% | 0.2% | 6.7 | 3.2 | 10.7% |
| Cn1c(SCC(=O)NC2CCCCCC2)nnc1-c1cccs1 | -0.5 | 0.6% | -0.9% | -0.7%[15.4 µM] | 2.9 | -5.6 | 0.2% |
| O=C1CSC(c2cccc([N+](=O)[O-])c2)N1c1ccccc1 (stereo not given) | 0.1 | · | · | -2.3%[15.4 µM] | 4.7 | -0.6 | 15.2% |
| O=C(Nc1ccc2c(c1)CN(Cc1ccc(CO)o1)CC2)c1ccc(C(F)(F)F)cc1 | · | · | -2.0% | -8.6%[15.4 µM] | 21.9 | 13.3 | -2.0% |
| CCOC(=O)c1nc(Nc2ccccc2CC)c2ccccc2n1 | 12.6 | 0.7% | -18.7% | -26.3%[15.4 µM] | -22.2 | -16.4 | 12.7% |
| CN(C)S(=O)(=O)c1cccc(NC(=O)C2Cc3ccccc3CN2C(=O)c2ccccc2)c1 (stereo not given) | 5.2 | 0.5% | -26.8% | -2.5%[15.4 µM] | -14.5 | -4.6 | 6.6% |
| COc1ccc(N2CCN(C(=S)Nc3cc(C)cc(C)c3)CC2)cc1 | 1.9 | -0.2% | 8.0% | 29.7% | 8.3 | · | -10.4% |
| COC(=O)C(NC(=O)c1ccc(F)cc1)(Nc1ncc(S(=O)(=O)c2ccc([N+](=O)[O-])cc2)s1)C(F)(F)F (stereo not given) | 1.8 | ? | -22.7% | 0.4% | 0.7 | 1.3 | 11.0% |
| CC1CCc2cc(F)cc3c(O)c(C(=O)NCC4CCCO4)c(=O)n1c23 (stereo not given) | -1.7 | ? | 18.3% | 23.1% | 9.7 | -15.7 | -11.9% |
| O=C(O)c1ncc(-c2ccccc2)cn1 | 4.2 | -3.1% | 6.1% | 0.5% | -15.7 | -2.9 | ? |
| Cc1cc(C(C)(C)C)cc(C)c1N | 3.4 | 2.7% | 10.6% | -9.4% | 0.0 | 1.2 | 7.1% |
| CCOCCCNC(=O)C(c1ccc(OC)cc1)N(Cc1cccs1)C(=O)CNC(C)=O (stereo not given) | 0.1 | -2.7% | 4.4% | 1.4%[15.4 µM] | -3.4 | 1.9 | 15.0% |
| CNC(=S)N/N=C/c1cn(CCOc2cccc(OC)c2)c2ccccc12 | 1.4 | 0.0% | 15.3% | 12.9%[15.4 µM] | -9.0 | -5.1 | ? |
| Cc1cccc(CSCc2ccc(C(=O)NC(C)C)o2)c1 | 6.6 | -0.7% | -15.8% | 20.7% | 5.2 | -23.8 | 0.1% |
| CSC(=NS(=O)(=O)c1ccc(C)cc1)SC | 0.9 | -1.5% | 8.7% | 12.1% | -0.7 | ? | 0.2% |
| Cc1cccc(C(=O)NCC(=O)NNC(=O)c2ccccc2O)c1 | · | · | 4.8% | -9.7%[15.4 µM] | 0.1 | 5.2 | · |
| COC(=O)c1c(NC(=O)Cn2nc(C(F)F)cc2C(F)F)sc(C)c1C | 3.3 | -22.3% | -4.1% | -5.8% | 14.3 | -1.9 | 56.2µM* |
| Clc1ccc(-n2cc(COCc3ccccc3)nn2)cc1 | -2.1 | · | 3.0% | -32.5% | 0.0 | -6.9 | -8.6% |
| O=Cc1c(N2CCN(c3cccc(Cl)c3)CC2)nc2ccccn2c1=O | 0.3 | -2.9% | -36.5% | -7.0% | -7.3 | 11.8 | -4.2% |
| CC(=O)CSc1nc2ccccc2o1 | 1.4 | -0.9% | 11.0% | -0.4% | 9.3 | 7.8 | 4.9% |
| Cc1ccc(CN(C)C[C@H]2OCc3cnnn3CCCC(=O)N([C@@H](C)CO)C[C@@H]2C)cc1 | · | 0.0% | · | -55.2%[inhibitor] | -8.1 | · | · |
| CC(C(=O)Nc1ccc(S(=O)(=O)N2CCCCC2)cc1)N1CCN(c2ccccn2)CC1 (stereo not given) | -1.3 | · | · | · | · | -26.3 | 8.1% |
| Cc1cc(C)n(CCC(=O)N/N=C/c2ccccc2O)n1 | -1.6 | ? | 3.5% | -99.7%[inhibitor] | -0.1 | 4.7 | 20.1% |
| CN1CCN(C(=O)c2cccn(Cc3c(Cl)cccc3Cl)c2=O)CC1 | -4.6 | -1.2% | 14.9% | -5.5%[15.4 µM] | 5.7 | -4.8 | 4.8% |
| CC(CN1CCOCC1)OC(=O)c1cccc(Cl)c1 (stereo not given) | -4.2 | -1.1% | 3.4% | -4.2% | · | -2.3 | 9.4% |
| Cc1ccccc1C(=O)c1c[nH]c(C(=O)N2CCN(c3ccccc3F)CC2)c1 | -1.2 | · | -15.9% | -7.3%[15.4 µM] | 7.7 | -12.2 | 11.2% |
| Cc1ccc(-n2cc(CCCCCCCCC(=O)O)nn2)cc1 | -4.8 | -0.2%&-0.3% | -19.7% | 36.6% | 4.3 | 16.8 | 0.2% |
| CC(C)(C)N(Cc1ccccc1)C(=O)COC(=O)C1CC1 | · | -1.2% | 7.0% | 14.6%[15.4 µM] | -4.4 | · | · |
| COCc1cc(C)nc2sc3c(=O)n(-c4cccc5ccccc45)nnc3c12 | 1.8 | -0.5% | 1.9% | 0.0% | -8.2 | 0.0 | -3.4% |
| COc1cccc(C2CCCCN2Cc2nc(-c3ccc(C)o3)oc2C)c1 (stereo not given) | -1.0 | · | -8.2% | 50.3%[15.4 µM] | · | 3.1 | 0.9% |
| CCOCCCNC(=O)C1(O)c2cc(Br)ccc2NC(=O)N1c1ccc(CC)cc1 (stereo not given) | -11.4 | 0.4% | 0.2% | -7.6% | · | -4.2 | 17.2% |
| C=C1C(=O)O[C@@H]2[C@H]1CC[C@H](C)[C@]1(O)CCC(=O)[C@@]21C | 0.0 | 0.0% | 5.2% | -19.1% | 12.8 | -1.2 | 0.6% |
| CSc1ccc(CN(C)CC(=O)NCc2ccc(F)cc2)cc1 | 1.5 | · | 6.6% | -2.8%[15.4 µM] | 0.0 | -9.8 | -3.6% |
| CCOC(=O)c1cc(-c2ccccc2)n(CC(=O)N2CCCC2)c1C | 0.3 | -0.6% | -20.2% | 1.5% | 0.6 | 2.5 | 17.8% |
| COc1ccc(-n2c(SCC(=O)Nc3cc(C(=O)O)ccc3C)nc3ccccc3c2=O)cc1Cl | 1.6 | -5.5% | 0.2% | -13.4% | · | -7.1 | 11.9% |
| CC1C(c2ccccc2)=[N+]([O-])C2(CCCC2)N1O (stereo not given) | 1.8 | 1.2% | 20.5% | ? | 4.8 | -3.1 | 4.9% |
| COC(=O)c1ccccc1NC(=O)Nc1nnc(N2CCCCC2C)s1 (stereo not given) | -1.0 | -15.9% | -3.5% | 10.5% | -3.9 | 16.4 | -0.3% |
| O=C(Nc1cccnc1)Nc1ccc(Br)cc1Cl | ? | -1.7% | -7.2% | -14.9% | 2.1 | · | -11.7% |
| CC1CCCCN1Cc1nc2c(c(=O)n(C)c(=O)n2C)n1CCCc1ccccc1 (stereo not given) | · | ? | -0.1% | ? | 2.3 | · | · |
| C=CCn1c(-c2cccn(Cc3cccc(Cl)c3)c2=O)n[nH]c1=S | -0.4 | 57.2% | ? | 29.2% | 4.1 | 11.8 | 4.8% |
| COc1ccccc1C(=O)NCCNC(=O)c1ccc(C)nc1 | -2.5 | · | 14.8% | 25.4% | -1.1 | 1.6 | 28.5% |
| O=C(CSc1nc2ccccc2c(=O)n1-c1ccccc1)c1cccc([N+](=O)[O-])c1 | · | · | 2.6% | -2.8%[15.4 µM] | 2.8 | · | · |
| CC(C)Cn1nc(NC(=O)C(C)(C)C)c2cc3ccccc3nc21 | -1.8 | -13.2% | -2.2% | 6.7% | 14.7 | -26.0 | 5.9% |

Compounds listed so far that contain a Cl atom (7):
| SMILES | Menin-MLL FL inh | ClpP mod | gsp antagonist | gsp ag | CtBP-E1A blk | TRPV1 PAM | Sfp inh |
| --- | --- | --- | --- | --- | --- | --- | --- |
| Clc1ccc(-n2cc(COCc3ccccc3)nn2)cc1 | -2.1 | · | 3.0% | -32.5% | 0.0 | -6.9 | -8.6% |
| O=Cc1c(N2CCN(c3cccc(Cl)c3)CC2)nc2ccccn2c1=O | 0.3 | -2.9% | -36.5% | -7.0% | -7.3 | 11.8 | -4.2% |
| CN1CCN(C(=O)c2cccn(Cc3c(Cl)cccc3Cl)c2=O)CC1 | -4.6 | -1.2% | 14.9% | -5.5%[15.4 µM] | 5.7 | -4.8 | 4.8% |
| CC(CN1CCOCC1)OC(=O)c1cccc(Cl)c1 (stereo not given) | -4.2 | -1.1% | 3.4% | -4.2% | · | -2.3 | 9.4% |
| COc1ccc(-n2c(SCC(=O)Nc3cc(C(=O)O)ccc3C)nc3ccccc3c2=O)cc1Cl | 1.6 | -5.5% | 0.2% | -13.4% | · | -7.1 | 11.9% |
| O=C(Nc1cccnc1)Nc1ccc(Br)cc1Cl | ? | -1.7% | -7.2% | -14.9% | 2.1 | · | -11.7% |
| C=CCn1c(-c2cccn(Cc3cccc(Cl)c3)c2=O)n[nH]c1=S | -0.4 | 57.2% | ? | 29.2% | 4.1 | 11.8 | 4.8% |
